Autofluor counter: counter-screen for toxin protease inhibitors: compound fluorescence; compound autofluorescence counterscreen, microsphere flow cytometry; active compounds read high; hit rate 3.1% among 360,000; fluorescence intensity (test concentration not listed);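 active = at least 3 SD above the mean of all compounds, about 16000 in these data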;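 also: 100 nL of 1 mM stock went into each well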
PrP UTR inh: inhibition of PrP 5' UTR reporter expression; cell-based PrP 5' UTR mRNA reporter, plate reader; inhibition, % (test concentration not listed); hit rate 0.35% among 340,000;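 active = every replicate at 50% or more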;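 also: 0 = median of the neutral control wells; tested in H4 reporter cells; numbers are from one replicate; inactives centre near -14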
BJeLR viability: kills HRASV12-expressing BJeLR cells | BJeLR (HRASV12) viability, CellTiter-Glo ATP luminescence, 48 h; reference of the scale not given here | inhibition, % (test concentration not listed) | hit rate 0.17% among 300,000;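 active = replicate mean above 50%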;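 also: 50 nL library stock added to about 25 µL; numbers are from one replicate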
RN4220 kill: kills Staphylococcus aureus RN4220; hit rate 0.33% among 330,000; S. aureus RN4220 growth, OD600, 16 h; inhibition, % (no concentration beside the values);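 active = z-score of -3 or lower and OD600 up to 0.18 on both plates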;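 also: plate controls were untreated cells for no effect and reference antibiotic for full effect; stock transfer was 100 nL into about 80 µL; one replicate is shown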
ugtP null kill: compounds lethal to S. aureus RN4220 ugtP deletion mutant; growth inhibition, % (test concentration not listed); OD600 growth, 16 h; some inactives read as strong as hits; hit rate 0.54% among 330,000; AID 1259309;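 active = z-score under -3 and OD600 up to 0.15 on both plates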;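 also: plate controls were untreated wells for no effect and antibiotic for full effect; wells of about 80 µL received 100 nL stock; the first replicate is given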
Mtb hypoxia inh: reduces hypoxia-regulated biosensor signal in M. tuberculosis. AID 1159583. hit rate 0.1% among 300,000. fluorescence inhibition, % (no concentration beside the values). M. tuberculosis hypoxia-regulated fluorescent reporter, fluorescence;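 active = 35 to 45% if threefold the growth effect, above 45% if 1.5-fold the growth effect; inactive = the rest, general growth blockers included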;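 also: wells of about 50 µL received 100 nL stock; 0% = vehicle wells and 100% = reference inhibitor wells; whole bacteria with a GFP reporter of the hypoxia response; strong numbers were not always called active; many hits fall short of the cut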
Mtb hypoxia inh growth: also measured in Mtb hypoxia inh; calls as there; growth inhibition, %; measured here: M. tuberculosis growth (absorbance);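 0% = vehicle and 100% = reference antibiotic; read after six days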
* marks the source's active call; other numbers are inactive results; · = no result given.

SMILES	Autofluor counter	PrP UTR inh	BJeLR viability	RN4220 kill	ugtP null kill	Mtb hypoxia inh	Mtb hypoxia inh growth
CCCCNC(=O)[C@H]1C[C@H]1[C@@H](O)[C@H](CO)NC(=O)[C@H](COCc1ccccc1)NC(=O)OC(C)(C)C	3124	-2.3	-5.2	·	·	·	·
CN(C)CC1CSCCC1(O)c1ccccc1Cl (centres undefined)	2977	-13.5	0.8	1.4	5.1	17.0	12.7
O=C(C1CCN(S(=O)(=O)N2CCC3(CC2)OCCO3)CC1)N1CCC(Cc2ccccc2)CC1	8840	-17.0	-5.7	5.5	12.5	2.8	-2.5
N/C(=N\O)c1ccncc1	3849	-6.7	4.2	·	·	·	·
CCC(=O)OC1(C)C(=O)C=C2C=C(c3ccsc3)OC=C2C1=O (centres undefined)	2862	-16.9	5.9	·	·	·	·
COc1ccc(NC(=O)c2cccc(N3C(=O)NC4CC3(C)Oc3ccccc34)c2)cc1 (centres undefined)	7988	-5.8	10.8	1.6	3.0	7.8	18.6
CCOc1cc(/C=C/c2ccc3cccc([N+](=O)[O-])c3n2)ccc1O	1911	-26.4	0.1	-1.0	4.9	3.7	1.4
COc1ccc(S(=O)(=O)N2CCN(CCOc3ccccc3Cl)CC2)cc1OC	6791	-14.1	·	3.7	13.2	4.6	-6.4
O=[N+]([O-])c1ccc(S(=O)(=O)N2CCN(c3ccnc4cc(Cl)ccc34)CC2)cc1	5383	-16.2	0.3	22.4	0.8	0.2	-1.5
CCC(C)[C@H](NC(=O)OC(C)(C)C)C(=O)N/N=C/C1=Cc2ccccc2OC1 (some centres undefined)	10258	-18.5	-3.6	·	·	·	·
Clc1ccccc1C1=Nn2c(nnc2-c2ccncc2)SC1	4699	17.8	1.6	3.2	0.2	6.4	5.5
O=C1CN(C(=O)COC(=O)c2ccc([N+](=O)[O-])o2)c2ccccc2N1	9005	-28.6	·	1.0	17.9	0.9	3.4
CCO[C@H]1OC(C(=O)N2CCCCCCC2)=C[C@@H](c2coc3ccccc3c2=O)[C@@H]1CCCO	4089	1.0	0.9	·	·	·	·
COc1ccc(S(=O)(=O)N2CCOC2CNC(=O)C(=O)NCCc2ccccc2OC)cc1 (centres undefined)	6166	-36.3	-9.4	-14.4	-2.0	11.2	7.1
CCC(C(=O)OCC(=O)Nc1cc(C)ccc1OC)c1ccccc1 (centres undefined)	2670	-20.3	-3.3	1.3	14.3	-1.9	2.2
COc1ccc(C(=O)NCC(=O)N2CCN(C(=O)c3ccco3)CC2)cc1	5569	-25.4	-6.5	·	·	·	·
N/C(=N\OC(=O)Cc1ccccc1)c1ccc([N+](=O)[O-])cc1	2425	-43.3	-9.3	·	·	·	·
Cc1cc(Cl)cc(Cl)c1OCCOCCN(C)C	2399	-4.9	-8.1	5.1	8.9	8.0	6.7
O=C(Cc1n[nH]c(=O)c2ccccc12)Nc1cc(Cl)ccc1-n1cncn1	5080	-18.3	-10.7	1.2	5.4	3.9	1.5
Cc1cccc(-c2sc(Nc3ccccc3)n[n+]2-c2ccc(F)cc2)c1	3799	-21.9	2.9	·	·	·	·
COc1ccc(CN2CCCC(N3CCc4ccccc4C3)C2)c(O)c1 (centres undefined)	3561	-35.0	8.8	1.3	8.2	-1.8	0.5
N#CC(CCc1ccc([N+](=O)[O-])cc1)(CCc1ccc([N+](=O)[O-])cc1)C(N)=O	3515	-13.1	·	4.2	1.6	18.1	6.6
O=C(CN1C(=O)c2ccc([N+](=O)[O-])cc2C1=O)Nc1ccccc1N1CCCC1	3673	-27.5	-5.8	-3.3	-3.8	-5.1	4.9
S=c1nc(NCCc2ccccc2Cl)c2ccccc2[nH]1	3496	-32.5	6.7	0.8	-24.0	3.8	-4.3
Nc1cc(N)nc(CS)n1	4640	-11.1	7.7	6.8	2.2	4.0	-4.0
COc1ccc(NC(=O)NCc2ccncc2)c(OC)c1	22838*	1.7	3.2	2.5	7.3	11.5	7.0
CCCC1(CCO)C(=O)NC(=S)NC1=O	4017	-15.6	·	1.2	0.5	-7.7	10.7
COC(=O)c1ccccc1S(=O)(=O)N1CCC(C(=O)NC2CCCCC2)CC1	4275	-17.9	·	5.4	7.0	8.4	-7.4
CC(C)N1CCC(=NNc2ccc(S(=O)(=O)N3CCOCC3)cc2[N+](=O)[O-])CC1	1788	-5.0	8.1	3.0	13.6	0.0	4.2
Cc1[nH][nH]c(=O)c1C(c1ccc2c(c1)OCO2)c1c(C)[nH][nH]c1=O	3594	-43.6	-4.4	7.9	3.5	16.1	12.0
CCOC(=O)c1ccc(-c2ccc(/C=N/NC(=O)CN(c3cccc(C)c3)S(C)(=O)=O)o2)cc1	2086	-86.0	16.6	·	·	·	·
CCN(CC)C(=O)CSc1nc2ccsc2c(=O)n1CCCC(=O)NCCc1ccc(S(N)(=O)=O)cc1	4058	-25.1	-3.4	7.1	10.6	9.3	5.5
CCN(CC)S(=O)(=O)c1ccc(C(=O)NCCc2ccccn2)cc1	4462	78.3*	-13.4	-3.1	7.0	8.5	-1.7
O=C(OCC(=O)N(CCc1ccccc1)Cc1ccccc1)c1ccc(F)c(S(=O)(=O)N2CCOCC2)c1	3803	-10.1	·	1.4	-1.5	5.4	39.1
O=C(Cn1c(=O)oc2cc(S(=O)(=O)N3CCCC3)ccc21)N1CCCC1	5594	-27.9	-1.6	4.7	6.4	4.6	4.7
CC(C)(C)OC(=O)NNC1CC(=O)N(c2ccccc2F)C1=O (centres undefined)	10200	-20.3	12.3	4.1	1.2	5.2	2.9
Oc1cccnc1CN1CCCCC1	2945	·	·	0.7	-7.1	-13.8	5.2
COCCNC(=O)Cn1c(=O)n(C)c2ccccc21	5200	-10.4	-2.7	2.6	1.7	7.5	6.7
CCCCCCCCOC(=O)c1nc(Cl)c(Cl)c(N)c1Cl	9868	-12.9	7.6	-0.1	-16.4	2.0	-4.4
CCCC1(C(=O)OC)NC(c2ccc(OC)c(OC)c2)C2C(=O)N(c3cccc(C(C)=O)c3)C(=O)C21 (centres undefined)	3863	-6.3	6.3	·	·	·	·

Full records from above. Order of screens: Autofluor counter | PrP UTR inh | BJeLR viability | RN4220 kill | ugtP null kill | Mtb hypoxia inh | Mtb hypoxia inh growth
Entry for `Cc1cccc(-c2sc(Nc3ccccc3)n[n+]2-c2ccc(F)cc2)c1` = 3799 | -21.9 | 2.9 | · | · | · | ·
Entry for `Cc1[nH][nH]c(=O)c1C(c1ccc2c(c1)OCO2)c1c(C)[nH][nH]c1=O` = 3594 | -43.6 | -4.4 | 7.9 | 3.5 | 16.1 | 12.0
Entry for `O=C(Cn1c(=O)oc2cc(S(=O)(=O)N3CCCC3)ccc21)N1CCCC1` = 5594 | -27.9 | -1.6 | 4.7 | 6.4 | 4.6 | 4.7
Entry for `Clc1ccccc1C1=Nn2c(nnc2-c2ccncc2)SC1` = 4699 | 17.8 | 1.6 | 3.2 | 0.2 | 6.4 | 5.5
Entry for `N/C(=N\O)c1ccncc1` = 3849 | -6.7 | 4.2 | · | · | · | ·

Further compounds
SMILES	Autofluor counter	PrP UTR inh	BJeLR viability	RN4220 kill	ugtP null kill	Mtb hypoxia inh	Mtb hypoxia inh growth
O=C(NC(Cc1ccccc1)c1ccc2c(c1)OCCCO2)c1ccc(F)cc1 (centres undefined)	11733	-2.3	12.7	10.4	-17.9	-9.4	3.2
Cc1ccc(C2=C(CC(=O)O)C(=O)CC2)cc1	2473	4.9	-4.4	3.7	6.0	12.6	1.9
Cc1cccc2c(=O)cc(C)n(CC(=O)N3CCOCC3)c12	2695	5.1	-0.3	3.6	4.2	-2.7	12.7
COc1ccc(NC(=O)Nc2ccc(C(C)C)cc2)cc1	3596	-30.0	1.0	-2.0	-3.5	-2.2	3.6
CNC(=S)N/N=C/c1cccc(OCc2ccccc2F)c1	2167	-36.2	13.4	·	·	·	·
CCn1c(=O)n(CC)c2cc(S(=O)(=O)Nc3c(C)cccc3C)ccc21	4208	-21.5	-10.6	14.8	14.0	11.1	10.4
CCCn1c(SCC(=O)c2cc(OC)ccc2OC)nnc1C(C)C	4586	1.5	-1.7	0.8	1.7	·	·
CN(C)S(=O)(=O)c1ccc(Cl)c(C(=O)NCc2ccco2)c1	9440	-13.6	1.6	0.6	7.4	-2.8	1.4
CCOc1ccc(-c2cc(C(=O)O)c3ccccc3n2)cc1	11030	-22.4	3.5	0.6	1.5	4.9	2.0
CCCn1nnnc1NCc1cccc(OC)c1OC	4220	-3.1	-2.7	2.8	4.6	-0.9	-0.6
CC1CCCN(S(=O)(=O)c2ccc(NC(=O)[C@@H]3CCCN3C(=O)c3cccs3)cc2)C1 (some centres undefined)	5812	·	·	4.6	5.6	-3.1	5.8
CC(CC(=O)Nc1cccc(Cl)c1Cl)=NNC(=O)c1ccccc1C	·	·	·	5.9	-3.6	-2.2	-6.4
C/C(O)=C(\C#N)c1nnc2n1CCCCC2	8658	-25.0	-1.5	4.3	4.7	0.7	6.0
O=C(O)Cc1ccc(C(=O)c2ccccc2)s1	3015	4.7	8.6	-3.4	-0.6	-2.4	-3.4
COCC(C)n1c(SCC(=O)N2CCCCC2)nc2ccccc2c1=O (centres undefined)	3601	-8.0	9.4	5.0	3.0	13.2	7.2
Cc1c(C(N)=O)sc(N)c1C(=O)OC(C)C	4282	-7.4	-14.1	0.1	-0.7	10.4	6.5
CCC(CO)Nc1nc(CN2CCCCC2)nc2scc(-c3ccccc3)c12 (centres undefined)	3844	-21.2	1.2	-2.2	-3.0	2.8	8.6
COCCn1c(=N)c(C(=O)NCc2ccco2)cc2c(=O)n3cc(C)ccc3nc21	3302	-19.0	7.5	1.9	3.3	11.5	6.8
CCOc1cc(C2NC(=O)NC(C)=C2C(=O)OCC2CCCCC2)ccc1O (centres undefined)	2950	-58.2	-7.4	7.2	-2.7	1.4	-2.5
O=C(O)C(CC(=O)c1ccc(Cl)cc1)=NNc1ccc([N+](=O)[O-])cc1[N+](=O)[O-]	·	·	·	0.6	-12.8	-8.2	-14.9

Seven structures already listed, arranged by length of the SMILES, highest first:
SMILES	Autofluor counter	PrP UTR inh	BJeLR viability	RN4220 kill	ugtP null kill	Mtb hypoxia inh	Mtb hypoxia inh growth
CC1CCCN(S(=O)(=O)c2ccc(NC(=O)[C@@H]3CCCN3C(=O)c3cccs3)cc2)C1 (some centres undefined)	5812	·	·	4.6	5.6	-3.1	5.8
CCOc1cc(C2NC(=O)NC(C)=C2C(=O)OCC2CCCCC2)ccc1O (centres undefined)	2950	-58.2	-7.4	7.2	-2.7	1.4	-2.5
CC(CC(=O)Nc1cccc(Cl)c1Cl)=NNC(=O)c1ccccc1C	·	·	·	5.9	-3.6	-2.2	-6.4
COCC(C)n1c(SCC(=O)N2CCCCC2)nc2ccccc2c1=O (centres undefined)	3601	-8.0	9.4	5.0	3.0	13.2	7.2
Cc1c(C(N)=O)sc(N)c1C(=O)OC(C)C	4282	-7.4	-14.1	0.1	-0.7	10.4	6.5
O=C(O)Cc1ccc(C(=O)c2ccccc2)s1	3015	4.7	8.6	-3.4	-0.6	-2.4	-3.4
C/C(O)=C(\C#N)c1nnc2n1CCCCC2	8658	-25.0	-1.5	4.3	4.7	0.7	6.0

Screening results from PubChem BioAssay.
